High-throughput results from PubChem.
NPYLR7 ag = mosquito NPYLR7 agonism. activation, % at 10 µM. 0.15% of 270,000 active. HEK293T NPYLR7/Galpha15, GCaMP6s calcium fluorescence; in the data active = activation above about 40%;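 also: 0% = vehicle and 100% = reference agonist at the receptor; some compounds past the cut are filed as inactive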
NPYLR7 ag max-min = recorded beside NPYLR7 ag, whose call it bears; activation, %; measured here: Max-Min RFU normalised activation; some inactives read as strong as hits;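 span of the calcium signal over five minutes; 0% = vehicle and 100% = native peptide agonist; compound fluorescence can raise it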
* marks the source's active call; other numbers are inactive results; & = joins results of further samples. Some of the compounds tested; the hit share may differ from the screen's.

SMILES	NPYLR7 ag	NPYLR7 ag max-min
Cc1noc(C(F)(F)F)c1C(=O)NC1CCC(C)CC1 (configuration not stated)	-10	-10
CCOC(=O)CCCC(=O)N1CCN(c2c(-c3ccccc3)cnc3ncnn23)CC1	-7	-5
CN(Cc1ccccc1)C1(C(=O)NCCc2cnn(C)c2)Cc2ccccc2C1	3	2
COCCN(CC(=O)N(Cc1ccc2c(c1)OCO2)Cc1ccco1)C(=O)Nc1ccc(C)c(Cl)c1	12	9
COc1ccc(C=C2N=C(C(C)(C)C)OC2=O)c(OC)c1	-8	-9
CNC(=O)c1sc(COc2ccccc2-c2ccccc2)nc1C	-8	-12
CC1(C)CNC(=O)c2nc(-c3cccc(OC(F)F)c3)[nH]c2C1	-4	-4
COc1cc(OC)c(CNC(=O)c2c(C)noc2-c2cccc(F)c2)c(OC)c1	0	3
CCOC(=O)c1nn(Cc2ccccc2)c2c1CN(Cc1cn[nH]c1-c1ccccc1)CC2	18	3
C#Cc1cccc(NC(=O)NC2CCCN(c3ccccc3OC)C2=O)c1 (configuration not stated)	-2	35
Cc1cc(C)c(C(=O)NCC2CCN(C3CCCC3)CC2)c(C)c1	-10	-10
CC(C)N(C)S(=O)(=O)Nc1cccc(-c2nccs2)c1	3	2
COc1ccc(C(=O)NC(=NC2CC2)OCC(C)C)cc1	7	7
COc1cc(CSc2nnc(NC(=O)COc3ccccc3)s2)cc(OC)c1	33	37
O=c1c2ccc(Br)cc2ncn1CCn1cccn1	0	-5
O=C1CC2(CCN(C(=O)Cc3ccccc3C(=O)N3CCC4(CC3)CC(=O)c3cc(F)ccc3O4)CC2)Oc2ccc(F)cc21	-8	-11
COC(=O)c1sc(N=CN(C)C)c(C(=O)OC)c1C	2	1
CCOC(=O)c1cnc(N)[nH]1	-4	-10
Cc1ccc(-n2ncc3c(C)n[nH]c(=S)c32)cc1C	-2	-3
COCC1(C(=O)N2CCN(c3nc(C)cnc3C)CC2)CCC1	16	2

Next section, starting with the last four of the part before.
SMILES	NPYLR7 ag	NPYLR7 ag max-min
COC(=O)c1sc(N=CN(C)C)c(C(=O)OC)c1C	2	1
CCOC(=O)c1cnc(N)[nH]1	-4	-10
Cc1ccc(-n2ncc3c(C)n[nH]c(=S)c32)cc1C	-2	-3
COCC1(C(=O)N2CCN(c3nc(C)cnc3C)CC2)CCC1	16	2
OCCN1CCN(c2ncnc3c2c(-c2ccccc2)cn3-c2ccc(Br)cc2)CC1	14	9
O=C(NCc1ccccc1)c1cccc(OC2CCN(C3Cc4ccccc4C3)CC2)c1	17&17	14&4
COc1ccc(-c2nn(C)c(=O)c3ccccc23)cc1CNS(C)(=O)=O	-18	-22
CCc1nc2n(n1)C(=O)C(C(c1ccc(F)cc1)N1CCN(Cc3ccccc3)CC1)S2 (configuration not stated)	-6	-9
COc1ccccc1-c1ccc2c(c1)C(C)(Cc1cc(Cl)ccc1C(F)(F)F)C(=O)N2 (configuration not stated)	2	0
O=C(NCC(O)c1c(F)cccc1F)C1Cc2cccc(F)c2O1 (configuration not stated)	10	4
CCCOc1ccc(-c2cc(C(=O)N=Nc3c(O)[nH]c4ccccc34)[nH]n2)cc1	1	-3
NC(=O)NC12CC3CC(CC(C3)C1)C2	-3	-5
Cc1cc(NC(=O)CN(C)C2CCC3(CC2)OCC(C)(C)CO3)nn1-c1ccccc1	-10	-16
CC(C)C(NC(=O)CS(C)(=O)=O)c1ccccn1 (configuration not stated)	16	6
CC(C)c1cccc(OC(C)(C)C(=O)O)c1	0	-4
COc1cc(C(=O)NCCOC(C)C)ccc1OC1CCN(C2CCCC2)CC1	20	10
COC(=O)c1cc(Cl)c2c(c1)CC(CNC(=O)c1cc(C)oc1C)O2 (configuration not stated)	1	-3
CC(=O)NCCC(=O)Nc1nnc(Cc2ccccc2C)s1	-6	-9
CC(C)c1ncc(S(=O)(=O)N2CCC3CCC(C2)N3C(C)C)[nH]1 (configuration not stated)	-3	-3
CCC(C)NC(=O)c1coc(CN(Cc2ccc(F)cc2F)C(C)c2ccccc2)n1 (configuration not stated)	16	18
CNS(=O)(=O)c1ccc(/C=C/C(=O)N(C)Cc2cnn(C)c2)cc1	2	4
COC(=O)c1ccc(NC(=O)c2cc(-c3cccc(OC)c3)nc3ccccc23)cc1	5	-1
CCN(C(=O)CSc1nc(N)nc(N)n1)C1=CCCC1	4&6	3&1
O=C(NCc1ccccn1)c1ccc(CSc2nc(-c3ccccc3)cc(N3CCN(c4cccc(C(F)(F)F)c4)CC3)n2)cc1	13	15

Given with values under each structure: part of the list above
Results follow in this order: NPYLR7 ag	NPYLR7 ag max-min
> COC(=O)c1ccc(NC(=O)c2cc(-c3cccc(OC)c3)nc3ccccc23)cc1
  5	-1
> CNS(=O)(=O)c1ccc(/C=C/C(=O)N(C)Cc2cnn(C)c2)cc1
  2	4
> O=C(NCc1ccccn1)c1ccc(CSc2nc(-c3ccccc3)cc(N3CCN(c4cccc(C(F)(F)F)c4)CC3)n2)cc1
  13	15
> CC(C)C(NC(=O)CS(C)(=O)=O)c1ccccn1 (configuration not stated)
  16	6
> Cc1cc(NC(=O)CN(C)C2CCC3(CC2)OCC(C)(C)CO3)nn1-c1ccccc1
  -10	-16

Following part.
SMILES	NPYLR7 ag	NPYLR7 ag max-min
CCn1c(O)c(C=Nc2ccc(C(=O)OC)cc2)c(=O)n(CC)c1=S	-8	-12
O=C1C(=Cc2cccnc2)SC(=S)N1N=Cc1cccnc1	9	14
COc1ccc(OC)c(-c2nc(CN(Cc3cnn(C)c3)C(C)C)c(C)o2)c1	0&14	2&3
CCCC(=O)N1CCC1(C)C(=O)NS(=O)(=O)c1ccc(C)cc1 (configuration not stated)	-5	-6
c1csc(-c2nc(SC3CCCCC3)c3ccccc3n2)c1	0	-2
Cc1csc(SCc2cc(=O)c(OC(=O)c3ccc(F)c(F)c3)co2)n1	-5	-9
O=C(c1csc(S(=O)(=O)N2CCc3ccccc3C2)c1)N1CCOCC1	-6	-8
O=C(c1cc(F)cc(F)c1)N(Cc1cccc(Cl)c1)Cc1nc2cc(Cl)ccc2o1	-4	-12
COCc1cnc2c(c1SCC(=O)Nc1ccc(C(F)(F)F)cc1)c(=O)n(C)c(=O)n2C	9	17
C=C(C)Cn1c(NCc2ccccc2Cl)nc2c1c(=O)[nH]c(=O)n2C	-7	4
COc1ccc2c(c1)C1CC(C)(O2)N(C)C(=O)C1S(=O)(=O)c1ccccc1 (configuration not stated)	8	12
COc1ccc(NC(=O)C(=O)N(C)CCN(C)c2ccccc2)cn1	9	7
O=C1/C(=C/c2ccco2)SC(=S)N1CN1CCOCC1	12	19
O=C1c2ccccc2C(=O)c2cc(S(=O)(=O)NCc3ccco3)ccc21	-2	-4
CC(=O)NC(C)(C)c1noc(CCc2cccc(F)c2F)n1	17&6	8&2
Cc1ccccc1CN(C)C(=O)[C@@]12CNC[C@@H]1CN(S(C)(=O)=O)C2	6	3
N#CC(C(=S)Nc1ccc(F)cc1F)c1nc2ccccc2s1 (configuration not stated)	20	13
O=C(O)CCN(Cc1ccccc1)c1nc(-c2cccc(Br)c2)nc2ccccc12	-5	3
Cc1cc(C(=O)N2CCC2(C)C(=O)NS(=O)(=O)c2cccs2)nn1C (configuration not stated)	-3	-5
COc1ccc(OC(F)(F)F)cc1CC1(C)C(=O)Nc2ccc(-c3ccsc3)cc21 (configuration not stated)	3	0
CSc1nc(C)c(CCC(=O)NC(C)c2ccc(S(N)(=O)=O)cc2)c(C)n1 (configuration not stated)	-14	-15
Cc1cc(C)cc(OCC(O)CN2CCOCC2)c1 (configuration not stated)	-18	-19
CC1=C(C(=O)OCC(C)C)C(c2cccc(NC(=O)c3ccccc3Br)c2)NC(=S)N1C (configuration not stated)	15	10
Cc1ccc(F)c(S(=O)(=O)NC(=O)C2(C)CCN2C(=O)Cc2ccc(C(C)C)cc2)c1 (configuration not stated)	6	3
COc1cc2c(cc1OC)C(c1ccccc1)N(C(=O)c1c(F)cccc1F)CC2 (configuration not stated)	15	9
CCCN(CCC)S(=O)(=O)c1ccc(C(=O)Nc2nnc(CC)s2)cc1	-19	-26
CCN1C(=Cc2cc(C)[n+](C3CCCCC3)c(C)c2)Sc2ccccc21	266*	276*
CCCCC(=O)NCCN1CCn2cc(OC)c(=O)cc2C1=O	18	13
CN1CCN(C(=O)c2coc(COc3ccc(F)cc3)n2)CC1	6	1
CCSc1nnc(N2C(=O)c3ccc(Oc4ccc([N+](=O)[O-])cc4)cc3C2=O)s1	-4	-11
COC(=O)c1ccc(N(N=C2Sc3ccccc3C2=O)C(C)=O)cc1	-3	-7
COc1ccc2c(c1)CN(C(=O)c1ccccc1O)CC2	5	4
CC1(Cc2ccc(Cl)cc2)C(=O)Nc2ccc(-c3cccnc3)cc21 (configuration not stated)	0	-1
Fc1ccc2nc3c(nc2c1)c1cc(F)ccc1n3Cc1ccccn1	0	-1
CCn1nccc1NC(=O)C1(C)CCN1C(=O)Cc1ccc(C(C)C)cc1 (configuration not stated)	0	0
CCCc1nc(N2CCCN(C(=O)NCc3ccccc3)CC2)c2c(-c3ccccc3)noc2n1	20	10
Cc1cc(C)n(-c2nc3c(c(=O)n2CC(=O)Nc2ccc(F)cc2F)CCCC3)n1	-5	-8
Fc1ccccc1CNc1cc(-c2ccccc2)c2cc3c(cc2n1)OCCO3	-19	-25
CCC(C)N(Cc1ccncc1)C(=O)c1c(F)cc(OC)cc1F (configuration not stated)	-5	-5
O=C(Nc1cccc(C(F)(F)F)c1)N1CCSC1c1ccc(F)cc1 (configuration not stated)	-6	2
Cc1ccc(C2CCCN2C(=O)C2CCN(C(=O)OC(C)(C)C)C2)o1 (configuration not stated)	3	3
OCC1(CCc2ccccc2)CCN(Cc2ccc(OC(F)F)cc2)CC1	8	-1
CCOC(=O)c1cc(-c2cccc(NC(=O)c3cccc(C#N)c3)c2)n(-c2ccc(OC)cc2)n1	23	12
COc1ccc(C2C3=C(CC(C)(C)CC3=O)OC3=C2C(=O)CC(C)(C)C3)cc1	-2	-8
CC(=O)N(Cc1noc(C)n1)C1CCN(CCn2nc(C)cc2C)C1 (configuration not stated)	3	1
N#Cc1ccc(NC(=O)Cn2cnc3sc4c(c3c2=O)CCCC4)cc1	4	-1
Cc1noc(C)c1CCC(=O)NCc1ccccc1F	0	0
O=c1nc(SCc2ccc(F)cc2)c2c(n1CC1CCCO1)CCCC2 (configuration not stated)	-5	-8
O[C@@H]1CN(Cc2ccc3c(c2)CCO3)CC[C@H]1c1ccc(F)cc1	1	2
NC(=O)c1ccc(C(F)(F)F)n(Cc2ccc3c(c2)OCCO3)c1=O	5	8
CCC(NC(=O)c1csc(C2CC2)n1)C1CN(Cc2ccccc2)CCO1 (configuration not stated)	3	1
CNC(=O)c1cnc(/C=C/c2cnc3cc(C)ccn23)s1	10	8
Brc1ccc(C=NN2CCN(c3ccccc3)CC2)s1	7	5

An excerpt of these results, comma-delimited.
SMILES,NPYLR7 ag,NPYLR7 ag max-min
OCC1(CCc2ccccc2)CCN(Cc2ccc(OC(F)F)cc2)CC1,8,-1
CCOC(=O)c1cc(-c2cccc(NC(=O)c3cccc(C#N)c3)c2)n(-c2ccc(OC)cc2)n1,23,12
COc1ccc(C2C3=C(CC(C)(C)CC3=O)OC3=C2C(=O)CC(C)(C)C3)cc1,-2,-8
